Compound activity as filed in PubChem.
D2 ag = human D2 receptor agonism in beta-arrestin assay; P14416; DiscoveRx PathHunter D2 beta-arrestin, luminescence, 90 min; 100% = 57 uM dopamine signal; activation, % (no concentration beside the values); actives 0.084% (n = 360,000); AID 624465; in the data active = activation above about 40%; inconclusive = about 15% to 40%; inactive = below about 15%; further: compound concentration not given in the record; the text of the record calls up to 30% inactive
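Agonist mode: compounds alone added to overnight-plated D2 PathHunter cells for 90 min at 37 C, with 57 uM final dopamine (EC100) defining full response. Beta-arrestin recruitment detected by chemiluminescent reagent, read after 1 h at ambient temperature.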
Six1-Eya2 blk = blocks human Six1 binding to Eya2. actives 0.56% (n = 360,000). AlphaScreen GST-Six1/His-Eya2 binding, biochemical; hits give low values; control for the full effect not named in the record. Q15475+O00167. activity change, % (concentration not given with the values). AID 651725; in the data active = activity change below about -65%; inconclusive = about -30% to -65%; inactive = above about -30%; further: on the % scale 0 is the no-effect control and ±100 the full control effect
Target sequence (O00167 whole entry, looked up): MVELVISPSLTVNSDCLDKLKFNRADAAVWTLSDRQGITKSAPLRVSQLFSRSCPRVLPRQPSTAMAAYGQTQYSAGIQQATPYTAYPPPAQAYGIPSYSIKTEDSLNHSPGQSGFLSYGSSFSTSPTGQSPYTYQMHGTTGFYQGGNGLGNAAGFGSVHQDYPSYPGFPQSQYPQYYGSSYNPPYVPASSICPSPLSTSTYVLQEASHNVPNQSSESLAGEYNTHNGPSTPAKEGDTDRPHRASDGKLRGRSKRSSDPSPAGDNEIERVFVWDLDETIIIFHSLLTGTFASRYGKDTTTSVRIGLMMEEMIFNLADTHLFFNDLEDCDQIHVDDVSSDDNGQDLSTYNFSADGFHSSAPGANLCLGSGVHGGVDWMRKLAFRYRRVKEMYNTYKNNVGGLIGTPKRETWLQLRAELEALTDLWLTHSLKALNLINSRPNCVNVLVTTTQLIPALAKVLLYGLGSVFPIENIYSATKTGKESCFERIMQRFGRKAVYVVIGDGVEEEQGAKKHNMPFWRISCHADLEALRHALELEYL
Target sequence (Q15475 whole entry, looked up): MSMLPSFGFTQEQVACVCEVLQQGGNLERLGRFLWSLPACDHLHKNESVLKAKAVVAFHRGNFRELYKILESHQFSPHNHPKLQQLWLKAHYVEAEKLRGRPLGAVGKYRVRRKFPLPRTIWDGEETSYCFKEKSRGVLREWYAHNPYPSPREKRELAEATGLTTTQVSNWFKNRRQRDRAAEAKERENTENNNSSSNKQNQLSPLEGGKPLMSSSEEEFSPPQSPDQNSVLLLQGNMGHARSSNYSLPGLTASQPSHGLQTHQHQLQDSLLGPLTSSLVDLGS
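Compounds are tested against tagged Six1 and Eya2 proteins bridged by glutathione donor and nickel acceptor beads; after a one-hour incubation at 37 °C without light, AlphaScreen emission is recorded.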
TRPML1 inh = blocks the human TRPML1 channel; TRPML1-inducible cells, Ca2+ dye fluorescence, FDSS; hits give low values; inhibition of EC80 agonist-evoked calcium signal; AID 624415; activity change, negative = inhibition, % (test concentration not listed); Q9GZU1; actives 0.02% (n = 390,000); in the data active means activity change below about -50%; inconclusive means about -30% to -50%; inactive means above about -30%;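 further: stimulus is agonist 54-4 at its EC80 concentration; on the % scale 0 is the no-effect control and ±100 the full control effect; compound concentration not given in the record; the text of the record puts the active cut at -80%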
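TRPML1-DL cells, Tet-induced overnight (~16 h, 37 °C) at 1,500 cells/well, were loaded with Ca8 no-wash dye plus quencher for 45-90 min at room temperature. Compounds were pinned during FDSS kinetic reading; agonist 54-4 at EC80 (4 uM final) then added.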
TRPML1 ag = human mucolipin-1 channel agonism. TRPML1-expressing cells, Ca2+ dye fluorescence, FDSS; host cell line not named in the record; reference of the full effect not given here. activation, % (test concentration not listed). actives 0.12% (n = 410,000). AID 624414; in the data active = activation above about 50%; inconclusive = about 30% to 50%; inactive = below about 30%; further: 0% is about no effect; the text of the record puts the active cut at 80%
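Kinetic FDSS Ca2+ read in Tet-induced TRPML1-DL cells (ABD Ca8 dye plus quencher, 45-90 min RT loading): baseline, then compound, then 110 s agonist window; EC80 agonist 54-4 at 4uM final added afterwards for a 110 s antagonist window.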
CtBP-E1A blk = blocks the CtBP interaction with E1A; activity change, % (no concentration beside the values); actives 0.49% (n = 340,000); AID 651724; AlphaScreen GST-E1A/His-CtBP binding, 1536-well; hits give low values; control for the full effect not named in the record; in the data active means activity change below about -65%; inconclusive means about -30% to -65%; inactive means above about -30%; further: on the % scale 0 is the no-effect control and ±100 the full control effect; compound concentration not given in the record
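Steps: dispense buffer (Tris pH 8.0, NaCl 300 mM, TCEP 1 mM, BSA, Tween 20); add 5X protein mix (GST-E1A, His-CtBP, 125 nM each); pin 23 nL compound; 2 h at 37 °C, dark; add 5X beads (50 ug/mL); 1 h; read.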
PINK1 modulator = modulators of PINK1 expression; PINK1 immunofluorescence, high-content cytometry, 24 h; Potency, µM (titrated, usually from 76.6 µM), for inactives: top-dose activation (PINK1 increase), usual class: activators; actives 0.2% (n = 410,000); AID 624263; active = well fitted activation curve with a large enough effect; inconclusive = small, poorly fitted or top-dose-only effect; inactive = flat fitted curve, though single readings scatter; cell line not stated here;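 further: potency means the concentration at half of the fitted maximal effect; % of control where 0% means no effect; nearly all actives have a fitted effect of over 65% in size; a mitochondrial uncoupler was the plate control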
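Stable cell line, 250 cells/well, 12 h attachment; compounds pinned at 5 concentrations, 24 h; CCCP control. Fixed with nuclear dye, primary antibodies 12 h at 10 degrees C, secondary plus cell stain; laser-scanning cytometer read.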
The depositor's hits bear a star; ? = inconclusive; · = no result given; & = joins results of further samples; [ ] = remark or other dose.

molecule	D2 ag	Six1-Eya2 blk	TRPML1 inh	TRPML1 ag	CtBP-E1A blk	PINK1 modulator
CN(C)c1ccc(-c2nc3cnccn3c2Nc2ccc3c(c2)OCCO3)cc1	0.8	-19	-10	0.3	·	-1.3%
Cc1ccc(C(=O)C2(C)C3c4cc(Br)ccc4OC(=O)C32C(=O)c2ccco2)cc1 (stereo not given)	-2.7	-14	-8	0.0	-5	-0.4%
CCn1c(SCC(=O)c2ccc(OC)cc2)nnc1C(C)NC(=O)c1ccc(OC)cc1 (stereo not given)	-4.4	0	-2	-0.6	0	0.2%
CCC(C)NC(=O)CN(c1cc(C)cc(C)c1)S(=O)(=O)c1c(C)[nH]c(=O)[nH]c1=O (stereo not given)	-1.7	3	1	1.1	0	-0.7%
Cc1ccc(NS(=O)(=O)c2ccc(NC(=O)N3CCCC3)cc2)cc1C	·	·	-17	-0.8	·	1.0%
CCc1nc(=O)c(-c2ccccc2)c(C)n1-c1ccccc1	-1.5	15	-53*	1.6	5	-2.3%
Cc1ccc(OCCC(=O)N(Cc2ccccc2)c2c(N)n(Cc3ccccc3)c(=O)[nH]c2=O)cc1	-2.2	7	6	-1.0	-1	-3.6%
CCOC(=O)N1CCC(NC(=O)C2CCCN(S(=O)(=O)c3ccc4c(c3)oc(=O)n4C)C2)CC1 (stereo not given)	0.2	5	4	0.3	11	·
Cc1cc(NC(=O)NCc2ccccc2)c(=O)n(Cc2ccc(F)cc2)c1	8.8	3	8	1.9	-1	5.2%
Cc1ccc[n+](-c2nc([O-])sc2/C=N/Nc2ccc([N+](=O)[O-])cc2)c1	-0.3	2	17	-0.5	3	0.4%
O=C(CSc1ccc2nnc(-c3ccccn3)n2n1)Nc1ccccc1	-0.6	?	11	0.3	-11	0.1%
Cc1ccc(C)c(NS(=O)(=O)c2ccc(OCC(=O)NCC3CCCO3)cc2)c1 (stereo not given)	-3.7	0	-7	0.3	-8	-0.2%
CCC(=O)NCCn1c(C)cc2ccccc21	-0.5	-10	20	1.3	3	0.3%
c1ccc2c(c1)SCc1nnc(-c3ccncc3)n1-2	4.5	-15	-10	-0.2	0	-0.5%
Cc1ccc([C@H]2C[C@H](O)[C@@H](n3cc(COC(=O)c4ccccc4)nn3)CN2C(=O)c2cccs2)cc1	-1.4	7	-9	-0.2	-8	-0.9%
CCCCC(=O)NC(NC(=S)N1CCOCC1)C(Cl)(Cl)Cl (stereo not given)	-2.7	0	-3	0.2	5	0.5%[38.3 µM]
COc1ccc(-c2sc(NC(=O)c3ccc(C)cc3)nc2-c2ccc([N+](=O)[O-])cc2)cc1	-3.3	3	9	0.3	4	5.7%
COc1ccc(-c2nnc(SCC(=O)NC3CCCCC3)nc2-c2ccc(OC)cc2)cc1	·	·	15	3.0	·	-0.2%
COC(=O)c1ccc(N2C(=O)Nc3ccccc3N2O)cc1	-4.9	13	-6	1.9	4	-2.3%
Cc1ccccc1NC(=S)N1CCCC1	-4.7	-2	28	0.2	4	1.8%
CCc1cc2c(COC(=O)c3cccc(NS(C)(=O)=O)c3)cc(=O)oc2cc1O	2.9	-4	6	3.8	-6	-1.5%
CON=C1C=C(C)C(=O)C(C)=C1C	0.7	2	-1	1.0	1	3.7%
CCC1=NC(c2ccc(Br)cc2)N(O)C1(C)C (stereo not given)	-7.6	2	-25	0.5	4	0.2%
COc1cccc2c(Cl)c(CC=C(Cl)Cl)c(C)nc12	-0.1	20	-7	0.8	-9	-0.7%
Cc1cc(C)cc(NC(=O)C(=S)NCc2ccccc2)c1	-2.4	-1	2	0.9	10	4.9%

Going on with the list.
molecule	D2 ag	Six1-Eya2 blk	TRPML1 inh	TRPML1 ag	CtBP-E1A blk	PINK1 modulator
CCOc1ccc(NC(=O)CSC2=C(C#N)C(c3ccc4c(c3)OCO4)CC(=O)N2)cc1 (stereo not given)	-0.7	-4	-3	1.7	-8	-1.2%
Cc1ccc(Cn2ccc(NC(=O)c3cc(C4CC4)on3)n2)cc1	-1.6	5	·	·	-3	0.1%
O=C(Nc1cccc(F)c1)c1cc(S(=O)(=O)N2CCC(C(=O)O)CC2)ccc1F	0.0	-5	-3	0.6	18	3.5%[38.3 µM]
COc1cc(/C=N/NC(=O)c2cc3ccccc3[nH]2)ccc1O	-1.9	-3	·	·	-4	0.1%
COc1ccc(CNC(=O)c2csc(Cc3ccccc3)n2)cc1	-2.5	20	3	2.2	5	-2.8%
O=C1C=C(NCCc2cc(Br)c(O)c(Br)c2)C(=O)c2ncccc21	?	-86*	-7	2.5	-92*	?
Cc1ccccc1S(=O)(=O)Cc1ccc(C(=O)NCc2ccccc2)o1	-3.9	1	-12	0.2	-5	0.5%
O=C(CC(O)(c1ccccc1)C(F)(F)F)c1cccs1 (stereo not given)	0.2	10	-11	-0.2	13	2.9%[38.3 µM]
Cc1ccc(N2CC(c3nc4ccccc4[nH]3)CC2=O)c(C)c1 (stereo not given)	-1.7	9	-2	0.0	16	1.6%
CCCC(=O)Nc1ccccc1NC(C)=O	1.2	-1	0	1.8	-2	0.0%
Fc1ccc(-c2ccc(/C=N/n3cnnc3)o2)cc1	3.7	2	-4	-0.8	·	-0.5%
Cc1cc(C)nc(NC(=O)C(C)C)n1	-1.7	2	3	-0.3	3	2.8%
Cc1cc(C(C)(C)C)cc(S(=O)(=O)Nc2cccc(C(=O)O)c2)c1C	4.0	6	-1	-0.7	9	3.3%[38.3 µM]
Cc1c(NC(=S)NC(=O)c2cc3ccccc3o2)c(=O)n(-c2ccccc2)n1C	-1.0	2	-4	0.1	-2	0.2%
CCC(C)Nc1nc2c(c(=O)[nH]c(=O)n2C)n1CCCc1ccccc1 (stereo not given)	-2.7	12	-4	0.8	1	-0.5%
CCc1nc2c(OCc3cccc(Cl)c3)cccn2c1N(C)C(=O)c1ccc(OC)cc1	-5.2	-12	·	-0.5	-1	8.8%
Clc1ccc(Oc2nnnn2-c2ccccc2)cc1	-3.3	12	31	1.0	9	-2.5%
O=C(CN1CCC(n2nnc3cc(F)ccc32)CC1)NC1CC1	-1.3	3	-15	0.0	-7	-3.8%
CC(=O)Nc1nnc(SCC(=O)NCc2ccc3c(c2)OCO3)s1	-3.0	0	0	0.2	1	-1.6%
O=C(Nc1ccccc1O)c1ccc(C(=O)c2ccccc2)o1	0.8	-12	0	1.7	-6	1.7%
CCOC(=O)C1=C(C)Nc2nc(SCC(=O)OC)nn2C1c1cc(F)cc(F)c1 (stereo not given)	-0.5&-1.8	29&-1	-7&5	2.1&0.2	7&-1	4.5%
CC1CCCCN1C(=O)CSc1c2c(nc3cc(Cl)ccc13)CCCC2 (stereo not given)	·	·	23	0.0	·	-0.6%
CCCCN(C)CCCNC(=O)c1cn(CC)c2ccc(S(=O)(=O)N3CCOCC3)cc2c1=O	-5.6	2	-13	-0.4	-4	-1.9%
COc1ccccc1/C=C/C=N/n1c(-c2ccccc2)n[nH]c1=S	-1.6	3	15	3.1	-3	11%
O=C(O)CCC(=O)NNC(=O)c1ccc([N+](=O)[O-])cc1	-7.7	2	·	·	2	-0.5%

Other records follow.
molecule	D2 ag	Six1-Eya2 blk	TRPML1 inh	TRPML1 ag	CtBP-E1A blk	PINK1 modulator
Cn1c(SCC(=O)Nc2nc3ccccc3s2)ncc(C(=O)Nc2ccccc2)c1=O	·	·	-6	1.5	·	0.1%
Cc1ccc2[nH]cc(CCNC(=O)Nc3ccccc3)c2c1	-0.9	-9	-15	3.3	-12	6.4%[38.3 µM]
Cc1ccc2c(c1)nnn2C1CCN(S(=O)(=O)c2ccc3ccccc3c2)CC1	-0.8	-3	-15	3.2	-23	-1.3%[38.3 µM]
COn1c(SCc2ccc(Cl)cc2)nc2ccccc2c1=O	-2.7	9	26	2.5	0	2.5%
COCOc1cc(O)c2c(=O)c(OCOC)c(-c3ccc(OCOC)c(OCOC)c3)oc2c1	-5.5	-11	·	·	0	1.0%
CC(=O)N/N=C(\C)C1COc2ccccc2O1 (stereo not given)	-0.1	7	5	0.5	0	-1.1%
COC(=O)CSc1nc2ccc(C)cc2cc1C#N	-4.5	11	-7	-0.1	9	11%
CN(C)S(=O)(=O)c1cccc(NC(=S)NN=C(Cc2ccccc2)Cc2ccccc2)c1	4.3	-13	44	7.6	0	24%
S=C(c1ccc(-c2ccc(Cl)cc2)o1)N1CCCCC1	-5.1	?	7	1.8	?	3.4%[38.3 µM]
Cc1ccc(OCC(=O)NCc2ccc3c(c2)OCO3)c([N+](=O)[O-])n1	-5.0	-10	8	-1.4	-2	-0.2%
O=C(O)CCCCc1nc2ccccc2s1	-0.8	3	1	-0.8	2	-13%[38.3 µM]
Cc1nc2nc(C)c(CCC(=O)NCc3ccccc3)c(C)n2n1	·	·	-4	0.6	·	1.9%
CCC(C)NC(=O)c1cnn2c(C)c3c(nc12)CCCC3 (stereo not given)	-2.7	-4	9	1.9	35	?
OC(c1ccc(OCc2ccccc2)cc1)c1nnc(-c2ccccc2)o1 (stereo not given)	0.1	4	18	0.5	6	0.4%
C/C(CC(=O)Nc1ccc2c(c1)OCCO2)=N\NC(=O)c1cccc(O)c1	-5.0	4	0	0.2	-1	0.1%
O=C(NC1CCCCCCC1)c1ccc2c(c1)OCO2	-4.2	0	38	-0.3	14	2.5%
CC(C)n1cc(/C=N/Nc2ccc(C(=O)O)cc2)c2ccccc21	10.0	-8	-15	-1.0	-3	-1.2%
CCOc1ccccc1CN1CCN(S(C)(=O)=O)CC1	-0.7	5	16	0.0	9	·
O=C1CCC(=O)N1CCC(c1ccc(F)cc1)c1ccco1 (stereo not given)	-0.8	2	25	0.9	-2	5.3%[38.3 µM]
Cn1c(SCCN2CCCC2)nnc1C1CCN(S(=O)(=O)c2ccc(F)cc2)CC1	-3.3	0	-4	-0.4	-10	2.5%
COc1ccc(CCNC(=O)CN2C(=O)COc3ccc(S(=O)(=O)N4CCCC4)cc32)cc1OC	-2.1	1	1&-7	-0.7&2.6	3	4.7%&0.4%
Cc1c(Cl)cccc1N1C(=O)CC(Sc2ccccc2N)C1=O (stereo not given)	-12	-1	-2	-0.3	-1	25%
Cc1cc(NC(=O)CCOc2ccccc2)no1	0.1	5	-1	-0.7	-2	-0.7%
CC(OC(=O)c1cc(S(=O)(=O)N2CCOCC2)ccc1F)C(=O)NCc1ccc2c(c1)OCO2 (stereo not given)	-1.3	0	-7	-0.5	-21	2.9%
CC(C)(C)c1nc[nH]c(=O)c1Br	-2.4	4	9	-0.5	-3	-0.8%

Some of the entries so far, with two lines to a compound.
Value order – D2 ag, Six1-Eya2 blk, TRPML1 inh, TRPML1 ag, CtBP-E1A blk, PINK1 modulator
- CCc1nc2c(OCc3cccc(Cl)c3)cccn2c1N(C)C(=O)c1ccc(OC)cc1
→ -5.2, -12, ·, -0.5, -1, 8.8%
- Clc1ccc(Oc2nnnn2-c2ccccc2)cc1
→ -3.3, 12, 31, 1.0, 9, -2.5%

An unsorted share of the library. About 1% of those tested had a hit in this group.
